Screening data deposited in PubChem by several laboratories.
MT1-MMP act inh = MT1-MMP (human) activation inhibition; HT1080 RFP-PRO-GFP cells, GFP/RFP ratio fluorescence, overnight; percent of plate control window, DMSO zero; GFP/RFP ratio change, % at 20 µM; 0.061% of 360,000 active;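 active = GFP/RFP ratio change of at least 30% with cell ATP level not reduced by more than half and red fluorescence within 50% of control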; note: strong numbers were not always called active
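Assay system: HT1080 RFP-PRO-GFP cells | Dosing: 20 µM single dose, 1% DMSO | Incubation: Cells overnight before dosing, compound overnight, 37 °C, 5% CO2 | Evaluation: GFP/RFP fluorescence ratio | Control set: DMSO-only wells and HT1080 RFP-L50D-GFP cell wells as references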
eIF4H FP inh = inhibitors of RNA binding by human eIF4H; eIF4H fluorescence polarization binding assay; AID 2012; inhibition, % at 35 µM; 0.94% of 290,000 active;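 active = 50% or more with normal probe brightness, or confirmed in later tests; inconclusive = above 50% with abnormal brightness, or retests that disagree; inactive = below 50% or failed in later tests; about a fifth of its hits are not listed in these tables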;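 note: calls also rest on retests at 20 µM and on dose response follow-up; 0% = protein and probe with vehicle and 100% = probe without protein; strong numbers were not always called active; many hits fall short of the cut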
HIV Env fusion = HIV envelope-mediated fusion inhibition | HeLa-JRFL Env/CEM21 cell fusion, luciferase | 1.1% of 360,000 active | inhibition, % at 12.3 µM;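 active = mean replicate inhibition score of at least 50 and every replicate individually at or above 50; inconclusive = only one of the two criteria met; inactive = mean below 50 and not all replicates reaching 50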;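 note: 0% = plate neutral controls and 100% = maraviroc near 300 nM; one replicate is shown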
Rce1 inh = inhibitors of yeast Ras-converting enzyme; Q03530; yeast membranes, quenched prenylated peptide cleavage fluorescence; calls only; 0.27% of 290,000 active;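 active = fall in fluorescence gain of 50% or more versus controls, with final raw signal at or below 3038400; inconclusive = same 50% fall but final raw signal above 3038400; inactive = fall in fluorescence gain under 50%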;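 note: plate controls were neutral control wells for no effect and wells lacking membranes for full effect; tested at 10 µM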
Target sequence (Q03530 whole entry, looked up): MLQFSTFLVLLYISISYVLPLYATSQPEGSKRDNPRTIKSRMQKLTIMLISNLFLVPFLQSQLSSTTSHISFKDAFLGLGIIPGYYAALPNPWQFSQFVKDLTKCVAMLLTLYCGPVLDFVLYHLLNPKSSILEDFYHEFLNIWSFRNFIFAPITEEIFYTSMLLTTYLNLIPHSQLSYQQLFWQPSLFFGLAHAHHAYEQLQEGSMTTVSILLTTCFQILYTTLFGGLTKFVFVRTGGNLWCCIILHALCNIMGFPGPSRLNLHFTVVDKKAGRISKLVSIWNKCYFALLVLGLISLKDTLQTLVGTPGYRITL
UUG fidelity = modulators of start codon recognition fidelity in yeast. activity score, % at 18.7 µM. 0.13% of 350,000 active. S. cerevisiae UUG-firefly luciferase reporter, luminescence/redox ratio. AID 602363;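 active = replicate mean at a twofold rise or more, about +100% in these data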;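 note: firefly luciferase made from a UUG start codon reports start codon fidelity; reporter light over untreated wells divided by growth signal over untreated wells; some hits fall short of that in this replicate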
CSC inhib = blocks cancer stem cells | 1.1% of 300,000 active | AID 2717 | inhibition, % at 7.5 µM | cancer stem cell-like cells viability, luminescence;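 active = mean at 75% or more and at least half the replicates too; inconclusive = mean and replicates disagree; tested in HMLE shEcad cells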;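 note: 0% = median of negative and 100% = median of positive control wells; the first replicate is given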
PABP FP inh = PABP-poly(A) binding inhibition. P11940. PABP-poly(A) RNA binding, fluorescence polarization. inhibition, % at 35 µM. 1% of 290,000 active. AID 2014;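 active = 50% or more with normal probe brightness, or confirmed in later tests; inconclusive = above 50% with abnormal brightness, or retests that disagree; inactive = below 50% or failed in later tests; about a fifth of its hits are not listed in these tables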;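 note: calls also rest on retests at 20 µM and on dose response follow-up; controls were probe without protein and protein plus probe with vehicle; some compounds called inactive have numbers as strong as hits; many hits fall short of the cut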
Target sequence (P11940 whole entry, looked up): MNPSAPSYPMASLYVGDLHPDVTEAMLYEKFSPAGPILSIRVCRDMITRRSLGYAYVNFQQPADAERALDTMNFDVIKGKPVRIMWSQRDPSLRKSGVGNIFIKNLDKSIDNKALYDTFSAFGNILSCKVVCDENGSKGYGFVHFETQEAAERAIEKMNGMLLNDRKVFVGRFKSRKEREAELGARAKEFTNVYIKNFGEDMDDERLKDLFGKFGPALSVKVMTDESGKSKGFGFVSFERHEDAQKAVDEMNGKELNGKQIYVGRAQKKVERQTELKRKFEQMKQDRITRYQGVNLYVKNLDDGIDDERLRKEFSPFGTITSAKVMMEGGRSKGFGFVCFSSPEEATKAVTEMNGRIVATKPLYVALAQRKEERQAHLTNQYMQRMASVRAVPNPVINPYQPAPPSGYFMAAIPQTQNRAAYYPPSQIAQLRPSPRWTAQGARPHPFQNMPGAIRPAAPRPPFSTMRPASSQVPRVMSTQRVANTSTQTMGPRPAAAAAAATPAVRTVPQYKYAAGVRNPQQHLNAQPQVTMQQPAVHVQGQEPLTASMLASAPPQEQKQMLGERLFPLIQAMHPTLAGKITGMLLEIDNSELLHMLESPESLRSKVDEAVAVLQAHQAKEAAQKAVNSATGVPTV
MT1-MMP act inh RFP = also measured in MT1-MMP act inh; calls as there; RFP signal change, %; measured here: RFP expression control read;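 0 = vehicle wells; hits needed this value within 50% of zero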
* = called active by the depositor; i = inactive; ? = inconclusive; . = no result given.

SMILES	MT1-MMP act inh	MT1-MMP act inh RFP	eIF4H FP inh	HIV Env fusion	Rce1 inh	UUG fidelity	CSC inhib	PABP FP inh
COc1ccc(CN2CCC(n3nccc3NC(=O)C3CCCC3)CC2)cc1	6	5	-8	.	i	-19	-2	3
CCOC(=O)c1ccc(N2CSC3=C(C#N)C(c4cccs4)CC(=O)N3C2)cc1 (stereo not given)	-6	1	4	45	i	-16	-21	4
Fc1ccccc1N1CCN(Cc2nc(-c3ccccc3)no2)CC1	2	0	1	.	i	-6	-2	2
CCC(=O)c1ccc(OCC(=O)NCc2ccccc2CN2CCCC2)cc1	-3	0	.	-4	.	-5	7	.
CCc1cc2c(SCc3nc4sc(C(C)=O)c(C)c4c(=O)[nH]3)ncnc2s1	-51	2	?	-5	i	-19	-1	?
Cc1ccc(NC(=S)NNC(=O)c2ccccc2OC(F)F)cc1	6	3	2	-26	i	-34	0	2
COc1ccc(NC(=S)NC(NC(=O)C(C)C)C(Cl)(Cl)Cl)c([N+](=O)[O-])c1 (stereo not given)	6	1	-7	-124	i	-18	-5	1
CCN(CC)CCC(=O)Nc1ccc2c(c1)N(C(=O)CN(CC)CC)c1ccccc1CC2	-3	0	15	.	i	-3	4	42
CCOC(=O)C1CCN(c2cc3c(cc2NC(=O)c2ccccc2OCC)n(C)c(=O)n3C)CC1	-6	-9	1	12	i	-22	15	0
Cc1ccc(CN2C(=O)C(Cc3ccccc3)Nc3ncnc(N4CCN(c5ccccc5)CC4)c32)cc1 (stereo not given)	-18	-14	.	-44	i	-13	27	.
Cc1ccc2[nH]c(C)c(CCNC(=O)c3c(N)no[n+]3[O-])c2c1	-2	-6	-6	-46	i	.	3	4
Cc1ccc(S(=O)(=O)N2CCCC(c3nc(-c4ccc(C)o4)no3)C2)cc1 (stereo not given)	-9	-9	8	0	i	.	9	0
CC(=O)Nc1cccc(/C(C)=N/NC(=O)c2cccc(S(=O)(=O)N3CCOCC3)c2)c1	7	5	-3	13	i	-4	-10	13
CCCCCOc1ccc(C(=O)OCC(=O)Nc2cc(C)on2)cc1	4	0	.	-314	.	-15	.	.
CC(=O)c1c(C)[nH]c(C(=O)NNC(=O)COc2cc(C)ccc2C(C)C)c1C	-1	3	.	.	.	-10	-11	.
COc1ccc(Cn2nnnc2CN2CCN(c3ccc(OC)cc3)CC2)cc1	4	4	1	-7	i	.	19	5
CN1C(=O)[C@@H]2[C@H](C1=O)[C@@H]1C(=O)Nc3ccccc3C(=O)N1[C@@H]2c1cccc(Br)c1	-2	0	.	-19	i	-15	3	.
CCCOc1cccc(C2/C(=C(\O)c3ccc4c(c3)OCCO4)C(=O)C(=O)N2CCCn2ccnc2)c1 (stereo not given)	-1	2	-14	1	i	-9	-8	7
Cn1ncc(Cl)c1C(=O)N1CCCc2ccccc21	-4	1	3	.	i	1	-12	12
S=C(N=Nc1ccccc1)NNc1ccccc1	10	2	4	.	i	-30	-5	2
CSc1ccc(CCNC(=O)CCc2nnc3ccc(N4CCCC4)nn23)cc1	0	0	-2	28	i	-6	-16	4
CC(=O)Oc1ccccc1C(=O)Oc1ccccc1C(=O)O	1	-1	.	-10	.	-18	-5	.
COc1ccc(N(CC(=O)N/N=C/c2ccco2)S(=O)(=O)c2ccccc2)cc1Cl	2	-5	-12	-16	i	-16	-7	16
COC(=O)c1ccc(N2CCN(C)CC2)c(NC(=O)COc2cccc(C)c2)c1	-2	0	34	-6	i	-7	-3	1
COc1ccc(C)cc1NC(=O)CCS(=O)(=O)c1cc2c(cc1Cl)NC(=O)CO2	-3	-2	-8	7	i	-15	4	9
CC(C)NC(=O)c1cc(C2CCCCN2C(=O)OCCF)on1 (stereo not given)	3	8	.	7	.	-11	.	.
CCOC(=O)C1CCCN(C(=O)c2ccccc2[N+](=O)[O-])C1 (stereo not given)	-1	-1	4	-9	i	.	5	2
Cc1ccn(S(=O)(=O)c2ccc3oc(=O)ccc3c2)n1	4	3	-19	17	i	-10	1	1
CCN1CCN(S(=O)(=O)c2ccc(S(=O)(=O)NC3CC3)cc2)CC1	-2	2	4	-17	i	-3	0	-4
COc1ccc2c(c1)nc(-c1cccc(Br)c1)c(=O)n2C(c1ccccn1)c1nc2ccccc2[nH]1 (stereo not given)	5	0	.	-157	.	-21	.	.
COCCn1c(-c2cc(OC)c(OC)c(OC)c2)nc2oc3ccccc3c(=O)c2c1=O	8	4	2	-34	.	14	16	10
COc1ccc(C)cc1NC(=O)COC(C)=O	3	-2	7	-51	i	-5	-16	-2
COc1ccc(CNC(=O)CN2CCN(S(=O)(=O)c3ccccc3)CC2)cc1	-5	-2	.	.	.	-12	-14	.
Cc1ccc(-n2nc3c(c2NC(=O)c2ccc(F)c(F)c2)CS(=O)(=O)C3)cc1	-5	1	-14	3	i	-20	1	-4
CN(C)CCCN(C(=O)c1ccco1)c1nc2c(F)cccc2s1	-3	1	-2	-7	i	.	-8	-1
CCC(O)(C#CCN1CCCCC1)CC	4	8	-17	7	i	.	-13	7
NC1=NC(c2ccc(Cl)cc2)N(c2ccc(S(N)(=O)=O)cc2)C(N)=N1 (stereo not given)	0	1	-5	10	i	-16	-6	6
N=c1c(-c2nc3ccccc3[nH]2)cc(C(=O)c2cccs2)nn1-c1ccccc1	-31	-16	11	.	i	.	-13	0
O=C(NC1CCOc2ccccc21)c1ccc(Cl)nc1 (stereo not given)	0	-1	-5	-23	i	-8	-13	0
CS(=O)(=O)c1ccc2nc(NC(=O)c3ccccc3Br)sc2c1	-3	-1	1	-22	i	-21	-3	-1
COc1ccc(CNC(=O)CSc2nnc(C3CC3)n2C2CC2)cc1	2	1	.	7	.	-5	-6	.
CCOc1ccc(S(=O)(=O)NCCC(=O)N(C)CC(=O)Nc2ccc(N3CCOCC3)cc2)cc1	2	-2	.	.	i	-9	-11	.
COc1ccc(N2C(=O)C3ON(C4SC(=S)N(C)C4(C)C)C(c4ccc(Cl)cc4)C3C2=O)cc1 (stereo not given)	-5	0	-3	.	i	.	-5	-2
COc1ccc(N2CCC(CNC(=O)Nc3ccc(OC)cc3OC)C2)cc1 (stereo not given)	-3	4	4	.	i	-3	-8	8
COc1cccc(Nc2nc(=O)[nH]nc2C)c1	-3	-2	4	-72	i	-22	-1	-6
COc1cc(/C=C/C(=O)Nc2ccc(C(C)=O)cc2)cc(OC)c1OC	3	0	-4	-1	i	.	-10	32
CCOC(=O)c1c(-c2ccccc2)csc1NC(=S)N(CC)CC	-2	-5	2	2	i	.	.	5
Cc1ccc(S(=O)(=O)N2CCCCC2)cc1NC(=O)Cn1ncc(Cl)c(Cl)c1=O	4	-20	.	27	.	19	90*	.

In another format: results already given.
Structure: CCC(=O)c1ccc(OCC(=O)NCc2ccccc2CN2CCCC2)cc1
  MT1-MMP act inh: -3
  MT1-MMP act inh RFP: 0
  eIF4H FP inh: .
  HIV Env fusion: -4
  Rce1 inh: .
  UUG fidelity: -5
  CSC inhib: 7
  PABP FP inh: .

Structure: CCc1cc2c(SCc3nc4sc(C(C)=O)c(C)c4c(=O)[nH]3)ncnc2s1
  MT1-MMP act inh: -51
  MT1-MMP act inh RFP: 2
  eIF4H FP inh: ?
  HIV Env fusion: -5
  Rce1 inh: i
  UUG fidelity: -19
  CSC inhib: -1
  PABP FP inh: ?

Structure: Cc1ccc(NC(=S)NNC(=O)c2ccccc2OC(F)F)cc1
  MT1-MMP act inh: 6
  MT1-MMP act inh RFP: 3
  eIF4H FP inh: 2
  HIV Env fusion: -26
  Rce1 inh: i
  UUG fidelity: -34
  CSC inhib: 0
  PABP FP inh: 2

Structure: COc1ccc(NC(=S)NC(NC(=O)C(C)C)C(Cl)(Cl)Cl)c([N+](=O)[O-])c1 (stereo not given)
  MT1-MMP act inh: 6
  MT1-MMP act inh RFP: 1
  eIF4H FP inh: -7
  HIV Env fusion: -124
  Rce1 inh: i
  UUG fidelity: -18
  CSC inhib: -5
  PABP FP inh: 1

New compounds follow:
SMILES	MT1-MMP act inh	MT1-MMP act inh RFP	eIF4H FP inh	HIV Env fusion	Rce1 inh	UUG fidelity	CSC inhib	PABP FP inh
OC(CNC1CCCc2ccccc21)COc1ccc2ccccc2c1 (stereo not given)	-2	0	5	19	i	-5	22	2
O=C(Cc1ccccc1)c1c[nH]c(C(=O)NCc2ccncc2)c1	-1	4	-2	3	i	.	.	-10
COC(=O)c1[nH]c2cccc(OC)c2c1NC(=O)CCN1CCN(c2ccccc2F)CC1	.	.	0	.	i	.	.	-4
COc1ccc(-c2nnc(SCc3ccccc3F)o2)cc1OC	-2	2	0	.	i	-14	6	-1
O=[N+]([O-])c1cccc(S(=O)(=O)N2CCCCC2c2cccnc2)c1 (stereo not given)	-1	4	-16	.	i	-21	-12	6
Cc1ccc(OCCCC(=O)Nc2ccc(S(=O)(=O)Nc3cc(C)on3)cc2)cc1	-2	1	-4	-31	i	-3	-14	14
C/C(=N/NC(=O)c1ccc(Br)o1)c1ccc(C)o1	-1	5	9	.	i	.	-15	1
CC(C)NS(=O)(=O)c1ccc(OCC(=O)NCC2CCCO2)c(Cl)c1 (stereo not given)	0	-3	-7	.	i	.	13	0
CCOc1ccc(NS(=O)(=O)c2ccc3c(c2)N(C(C)=O)CC3)cc1	2	-10	-3	4	i	.	-3	-19
COc1cc(/C=N/NC(=O)c2ccc(O)cc2)ccc1Oc1ccc([N+](=O)[O-])cn1	6	-3	-11	-2	i	.	6	0
COc1ccccc1NC(=O)c1sc2ncn(Cc3cccc(C)c3)c(=O)c2c1C	-2	0	10	2	i	-15	9	-14
NS(=O)(=O)c1cccc(NC(=S)NC(=O)C23CC4CC(CC(C4)C2)C3)c1	.	.	11	.	i	-5	.	-2
COCCn1c(SCC(=O)Nc2nc3ccccc3s2)nnc1-c1ccoc1C	-1	-4	.	-55	i	-17	.	.
CCc1noc(C)c1C(=O)Nc1cc(S(=O)(=O)N2CCCCC2)ccc1N(C)C	3	3	.	17	i	-9	-11	.
O=C(c1cc(-c2cccs2)on1)N1CCN(c2ccc(F)cc2)CC1	13	-9	3	-2	i	1	.	-5
CC(C)(C)[C@H](N)C(=O)N[C@H]1CCC2C3CC=C4C[C@@H](O)CC[C@]4(C)C3CC[C@@]21C (stereo not given in full)	7	-1	.	-42	.	.	104*	.
CN(C1CCCCC1)S(=O)(=O)CCNC(=O)c1ccccc1	2	-5	.	-2	i	-6	-4	.
CN1CCOC(=O)/C1=N/Nc1cc(Cl)ccc1Cl	-3	-2	-3	0	i	-3	-1	5
Cc1cccc2c(CCNC(=O)c3ccc([N+](=O)[O-])cc3)c[nH]c12	2	-3	-4	-46	i	.	10	-14
CCN(CC)c1ccc(-c2nnc(SCC(=O)N(CCOC)c3c(N)n(CC(C)C)c(=O)[nH]c3=O)o2)cc1	-5	-4	.	-13	i	.	1	.
Cc1nc(N2CCCC2C(=O)O)c2oc3ccccc3c2n1 (stereo not given)	1	0	-4	.	i	0	-11	9

Quoted at random: three entries already listed.
SMILES	MT1-MMP act inh	MT1-MMP act inh RFP	eIF4H FP inh	HIV Env fusion	Rce1 inh	UUG fidelity	CSC inhib	PABP FP inh
COCCn1c(SCC(=O)Nc2nc3ccccc3s2)nnc1-c1ccoc1C	-1	-4	.	-55	i	-17	.	.
CC(C)(C)[C@H](N)C(=O)N[C@H]1CCC2C3CC=C4C[C@@H](O)CC[C@]4(C)C3CC[C@@]21C (stereo not given in full)	7	-1	.	-42	.	.	104*	.
Cc1nc(N2CCCC2C(=O)O)c2oc3ccccc3c2n1 (stereo not given)	1	0	-4	.	i	0	-11	9
